MT1-MMP act inh – inhibitors of human MT1-MMP activation; P50281; HT1080 RFP-PRO-GFP cells, GFP/RFP ratio fluorescence, overnight; percent of plate control window, DMSO zero; GFP/RFP ratio change, % at 20 µM; actives 0.061% (n = 360,000); AID 651647;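 active = GFP/RFP ratio change of at least 30% with cell ATP level not reduced by more than half and red fluorescence within 50% of control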; also: strong numbers were not always called active
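system = RFP-PRO-GFP reporter HT1080 cells | dosing = 20 µM single dose, 1% DMSO | timing = overnight cell settling, then overnight compound exposure, 37 °C, 5% CO2 | read-out basis = GFP/RFP fluorescence ratio | controls = DMSO and RFP-L50D-GFP cell wells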
Env fusion inh – HIV envelope-mediated fusion inhibition; HeLa-JRFL Env/CEM21 cell fusion, luciferase; inhibition, % at 12.3 µM; actives 1.1% (n = 360,000); AID 651610;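 active = mean replicate inhibition score of at least 50 and every replicate individually at or above 50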;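 also: 0% = plate neutral controls and 100% = maraviroc near 300 nM; one replicate is shown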
CSC inhib – cancer stem cell inhibition | cancer stem cell-like cells viability, luminescence | inhibition, % at 7.5 µM | actives 1.1% (n = 300,000) | AID 2717;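 active = mean at 75% or more and at least half the replicates too; tested in HMLE shEcad cells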;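 also: 0% = median of negative and 100% = median of positive control wells; the first replicate is given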
Rce1 inhib – blocks yeast Ras-converting enzyme; yeast membranes, quenched prenylated peptide cleavage fluorescence; calls only; actives 0.27% (n = 290,000); AID 2563;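 active = fall in fluorescence gain of 50% or more versus controls, with final raw signal at or below 3038400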;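 also: plate controls were neutral control wells for no effect and wells lacking membranes for full effect; tested at 10 µM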
Target sequence (Q03530 whole entry, looked up): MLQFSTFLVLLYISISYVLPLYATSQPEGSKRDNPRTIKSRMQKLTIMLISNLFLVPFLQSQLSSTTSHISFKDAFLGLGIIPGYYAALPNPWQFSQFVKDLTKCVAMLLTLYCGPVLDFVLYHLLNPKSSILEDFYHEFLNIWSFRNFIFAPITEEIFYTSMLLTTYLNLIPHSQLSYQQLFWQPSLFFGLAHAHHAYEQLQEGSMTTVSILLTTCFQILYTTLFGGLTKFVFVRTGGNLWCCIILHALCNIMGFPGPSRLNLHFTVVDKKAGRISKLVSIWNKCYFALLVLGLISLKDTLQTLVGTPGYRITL
eIF4H FP inh – inhibitors of RNA binding by human eIF4H; inhibition, % at 35 µM; AID 2012; Q15056; actives 0.94% (n = 290,000); eIF4H fluorescence polarization binding assay;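 active = 50% or more with normal probe brightness, or confirmed in later tests; about a fifth of its hits are not listed in these tables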;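 also: calls also rest on retests at 20 µM and on dose response follow-up; 0% = protein and probe with vehicle and 100% = probe without protein; strong numbers were not always called active; many hits fall short of the cut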
PABP FP inh – PABP-poly(A) binding inhibition; P11940; PABP-poly(A) RNA binding, fluorescence polarization; inhibition, % at 35 µM; actives 1% (n = 290,000);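 active = 50% or more with normal probe brightness, or confirmed in later tests; about a fifth of its hits are not listed in these tables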;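 also: calls also rest on retests at 20 µM and on dose response follow-up; controls were probe without protein and protein plus probe with vehicle; some compounds called inactive have numbers as strong as hits; many hits fall short of the cut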
UUG fidelity – yeast start codon fidelity modulation | AID 602363 | actives 0.13% (n = 350,000) | S. cerevisiae UUG-firefly luciferase reporter, luminescence/redox ratio | activity score, % at 18.7 µM;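 active = replicate mean at a twofold rise or more, about +100% in these data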;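 also: firefly luciferase made from a UUG start codon reports start codon fidelity; reporter light over untreated wells divided by growth signal over untreated wells; some hits fall short of that in this replicate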
MT1-MMP act inh RFP – also measured in MT1-MMP act inh; calls as there; RFP signal change, %; measured here: RFP expression control read;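 0 = vehicle wells; hits needed this value within 50% of zero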
Numbers without * were called inactive; i = inactive; . = not tested or not shown.

SMILES	MT1-MMP act inh	MT1-MMP act inh RFP	Env fusion inh	CSC inhib	Rce1 inhib	eIF4H FP inh	PABP FP inh	UUG fidelity
CCOc1ccccc1N(C(=O)Cn1nnnc1-c1ccc(C)o1)C(CC)C(=O)NC(C)(C)C (centres undefined)	-7	-1	-74	-3	i	-9	-3	.
CC(CCC(=O)O)C1CC[C@H]2C3CCC4CC(=O)CCC4(C)[C@H]3CC(=O)C12C (some centres undefined)	-2	-2	8	-5	i	-8	3	-7
O=C(COC(=O)Cc1ccc(S(=O)(=O)N2CCCCC2)s1)Nc1ccc2c(c1)OCO2	-7	1	12	-11	i	10	6	-2
CCc1ccc(CNCc2cccnc2)cc1	-7	5	.	9	i	2	-11	-21
CCc1ccc2[nH]c(=O)c(CN(Cc3ccco3)C(=S)NCC3CCCO3)cc2c1 (centres undefined)	-3	1	9	-4	i	1	-2	.
Cc1cc2c(N=O)c(NO)ccc2[nH]1	-7	-9	.	37	i	18	13	-13
COc1ccc([C@H]2CC(=O)C=C(c3ccc(Cl)c(F)c3)C2)cc1	4	2	10	-2	.	.	.	-28
Cc1ccccc1C(=O)Nc1ccc(Br)c(C)n1	-2	-1	.	2	i	-3	4	-4
C=C[C@@H]1c2c(F)cccc2N(S(=O)(=O)c2ccc(C)cc2)[C@H](c2ccc(OC(C)=O)cc2)C1(C#N)C#N	-20	-12	23	112*	.	.	.	-15
CCCc1nnc(SCC(=O)N2CCCC(C)C2)n1CCOC (centres undefined)	2	0	-5	8	i	-1	9	.
COCC(C)NC(=O)CCS(=O)(=O)c1nc(-c2ccc(OC)cc2)cc(C(F)(F)F)n1 (centres undefined)	-6	-11	.	-23	i	4	6	-10
CCOC(=O)/C(C#N)=C/Nc1ccccc1NS(=O)(=O)c1cccc(C(C)=O)c1	-1	0	10	-10	.	0	6	9
CCCCCOC(=O)C1C(c2ccccc2)C(C(=O)O)C1c1ccccc1 (centres undefined)	2	5	16	-8	i	7	0	.
Cn1nc(C(=O)NNC(=O)c2ccc(Cl)cc2)ccc1=O	-2	2	-8	6	i	.	.	-13
CC(C)N(CCc1ccncc1)C(=O)Nc1ccc(Cl)c(Cl)c1	-1	-2	-25	8	i	-3	3	-18
Cc1ccc(C(C(=O)NC2CCCCC2)N(Cc2ccccc2)C(=O)Cc2c[nH]c3ccccc23)o1 (centres undefined)	-12	-14	31	-6	i	-5	5	-12
Cc1cccc(C(=O)NC2CCN(S(=O)(=O)c3ccccc3F)CC2)c1	-1	-4	-2	10	i	12	8	-11
Cc1nc(N2CCN(Cc3ccc(Cl)cc3)CC2)c2oc3ccccc3c2n1	6	-21	-11	21	i	-5	13	0
CCN(CC(=O)Nc1ccc(OC)c(OC)c1)CC(=O)Nc1ccccc1C(F)(F)F	-1	1	5	-15	i	-11	2	-13
COc1ccc(OC)c(NC(=O)c2ccc3c(c2)OCO3)c1	0	2	1	-4	i	11	4	-5
COC(=O)COc1cccc2c(=O)n(CC(=O)NCc3ccc(F)cc3)ccc12	6	-3	-36	60	i	-2	8	-9
Cc1ccc(S(=O)(=O)N2CCN(Cc3ccccc3)CC2)cc1	-1	-4	-7	-5	i	0	-2	6
NC(=O)c1cccc(S(=O)(=O)N2CCCCC2)c1	2	4	.	-1	i	5	1	.
Cc1noc(C)c1S(=O)(=O)Nc1ccc2c(c1)C(=O)N([C@H](C)CO)C[C@H](C)[C@@H](CN(C)S(=O)(=O)c1ccc(F)cc1)O2	-3	-1	18	-23	.	.	.	-7
Cc1nn(C(C)C(=O)N2CCc3ccccc3C2)c(=O)c2cc3occc3n12 (centres undefined)	1	2	.	.	i	5	22	-5
COc1ccccc1NC(=O)c1cccnc1	12	13	-28	-2	i	12	-6	-12
CN(C)S(=O)(=O)Oc1ccsc1C(=O)Nc1ccc(C(F)(F)F)cc1	0	-8	33	11	i	7	-3	.
Cc1ccc(SCC(=O)Nc2ccc(S(=O)(=O)Nc3nccs3)cc2)cc1	0	2	.	.	i	4	-4	.
CCN1CC(CN(C)Cc2nc(COc3ccccc3)no2)CC1=O (centres undefined)	9	4	10	24	i	-1	-9	-1
CCCCOc1ccc(C(=O)NCC(=O)NNC(=O)C2COc3ccccc3O2)cc1 (centres undefined)	2	1	-6	-8	.	.	.	-3
CNc1ccc(-c2ccccc2OC)cn1	0	0	-44	.	.	.	.	-6
COc1ccc(C(=O)N2CCC(C)(C(=O)NS(=O)(=O)C3CC3)C2)cc1F (centres undefined)	1	2	-7	.	.	.	.	-19
COc1cc(C(=O)O)cc(Br)c1OC1CCCC1	3	-2	.	.	i	0	-3	1
CCOP(=O)(OCC)c1nc(-c2ccc(Cl)cc2Cl)oc1N1CCOCC1	1	0	24	.	i	1	-7	.
Cc1cc(C)cc(Cn2c3ccc(NC(=S)NCc4ccccc4F)cc3c(=O)n2C)c1	3	-3	16	.	.	.	.	-18
COc1ccc(/C=N/N=C2/NC(=O)CC(C(=O)O)S2)cc1 (centres undefined)	-1	2	.	-16	i	-2	3	-1
CC1(C)C(=O)OC(c2c3ccccc3cc3ccccc23)C(C)(C)C1=O (centres undefined)	-7	-7	21	4	i	-12	8	.
Cc1cccc(CN2C[C@]34C=C[C@@H](C[C@@H]3S2(=O)=O)O4)c1	-1	4	0	-14	i	-4	1	-15
OCCCc1cn(-c2ccccc2)c2ccccc12	1	0	-12	.	i	-2	15	.
CC(=O)Nc1ccc(OCC(O)CN2CCN(c3ccccc3Cl)CC2)cc1 (centres undefined)	4	1	-144	36	i	-6	-6	-46
CCCCn1c(N)c(N(CCOC)C(=O)c2ccc(S(=O)(=O)N(CC)c3ccccc3)cc2)c(=O)[nH]c1=O	1	4	-7	3	i	.	.	-8
COc1ccc(Cc2nc(-c3ccc(Cl)cc3)no2)cc1	6	5	-30	9	i	-2	0	-41
CCOC(=O)CCNC(=O)Nc1ccc2nc(C)n(Cc3ccc(Cl)cc3)c(=O)c2c1	13	-7	.	-20	.	-1	-7	.
COc1ccccc1CN1C[C@@H]2C[C@@H](c3ccc(C)c(C)c3)N3CCC[C@@]23C1=O	-5	0	8	0	i	-16	-10	.
C#CCN(C[C@@H]1[C@@H](OC(=O)NCc2ccccc2F)[C@@H](OC(=O)NCc2ccccc2F)Cn2c(=O)ccc(=O)n21)S(=O)(=O)c1ccc(C)cc1	-11	-27	7	.	.	.	.	-21

Ordered by molecular weight (ascending): part of the list above
SMILES	MT1-MMP act inh	MT1-MMP act inh RFP	Env fusion inh	CSC inhib	Rce1 inhib	eIF4H FP inh	PABP FP inh	UUG fidelity
OCCCc1cn(-c2ccccc2)c2ccccc12	1	0	-12	.	i	-2	15	.
COc1ccc(Cc2nc(-c3ccc(Cl)cc3)no2)cc1	6	5	-30	9	i	-2	0	-41
CC(=O)Nc1ccc(OCC(O)CN2CCN(c3ccccc3Cl)CC2)cc1 (centres undefined)	4	1	-144	36	i	-6	-6	-46
Cc1cc(C)cc(Cn2c3ccc(NC(=S)NCc4ccccc4F)cc3c(=O)n2C)c1	3	-3	16	.	.	.	.	-18
C#CCN(C[C@@H]1[C@@H](OC(=O)NCc2ccccc2F)[C@@H](OC(=O)NCc2ccccc2F)Cn2c(=O)ccc(=O)n21)S(=O)(=O)c1ccc(C)cc1	-11	-27	7	.	.	.	.	-21

Next part:
SMILES	MT1-MMP act inh	MT1-MMP act inh RFP	Env fusion inh	CSC inhib	Rce1 inhib	eIF4H FP inh	PABP FP inh	UUG fidelity
COc1cc(C(=O)N2CCN(c3cccc(C)c3C)CC2)cc(OC)c1OC	8	-7	-171	61	i	4	-7	-1
Cc1ccc(CN2CCCC2(C)C(=O)NC(C)C)cc1 (centres undefined)	-6	3	7	.	.	.	.	-8
COc1cc2c(c(OC)c1OC)C(=O)CO2	-1	2	15	.	.	.	.	-14
O=C(CCCN1C(=O)/C(=C/c2ccccc2)SC1=S)N1CCOCC1	2	-3	-10	.	i	3	4	-3
COCc1cccc(-c2csc(C(NC(C)=O)c3cccc(F)c3)n2)c1 (centres undefined)	1	-1	-13	.	.	.	.	-34
Cn1cccc1/C=C1\SC(=S)N(Nc2ccccc2)C1=O	4	4	-17	92*	i	20	36	-7
CN(C(=O)c1ccc2c(c1)OCO2)C1(C(=O)NC2CCCCC2)CCCCC1	3	11	-51	11	i	-1	-6	-10
CC(C)c1ccc(NC(=O)COC(=O)/C=C/c2cccc([N+](=O)[O-])c2)cc1	-2	2	-1	4	i	-3	-10	.
O=C(Nc1ccnn1C1CCN(Cc2ccccc2)CC1)C1CCCC1	1	3	-5	3	i	-4	-8	-3
COc1cc(Cl)c(NC2=CC(=O)C(=O)c3ccccc32)c(OC)c1	18	-10	.	110*	.	.	.	-20
Cc1ccc(CC(=O)Nc2ccc([N+](=O)[O-])cc2C)cc1	0	-1	1	6	i	6	-18	.
O=C(NCCNC(=O)c1ccccn1)c1ccc(Cl)cc1	1	1	-7	-1	i	-19	4	-14
O=C(NCc1ccc2c(c1)OCO2)c1cccc(S(=O)(=O)N2CCCCC2)c1	2	-1	.	-15	i	-3	6	.
Cc1ccc(N=C(NO)c2nonc2N)cc1	0	-6	-51	-7	i	0	3	-4
Cc1ccccc1S(=O)(=O)NCc1ccc(N2CCN(C)CC2)cc1	-8	1	-36	63	i	-8	-11	-7
O=C1c2ccccc2C(=O)N1SC1CCCCC1	1	-2	.	4	i	-2	1	-7
CCSc1ccc(-c2nn(-c3ccccc3)cc2/C=C(/C#N)C(=O)NCCCOC)cc1	0	1	-3	20	.	-4	0	.
O=C(c1ccc(Cl)cc1Cl)N1CCN(c2ccc(N3CCOCC3)nn2)CC1	-1	-9	-4	25	i	.	.	-12
Cc1nnc(SCC(=O)Nc2ncc3c(n2)CC(c2ccccc2)CC3=O)s1 (centres undefined)	-1	1	-9	7	i	-13	-4	-11
O=C(c1cccc(Cl)c1)N1CCC2(CC1)NCCc1[nH]cnc12	0	1	-1	-9	i	.	.	-17
O=C(c1ccco1)N1CCN(C(=O)c2cnn3c2NC(c2cccs2)CC3C(F)(F)F)CC1 (centres undefined)	0	-3	.	-9	i	-9	-13	-37
O=C(OCc1ccc(Br)cc1F)c1cc2ccccc2oc1=O	4	3	-1	-8	.	-12	-1	-16
CCOC(=O)N1CCC(NC(=O)CSc2cc(=O)n(CC)c3ccccc23)CC1	13	8	-4	-18	i	-12	7	-14
CCCCNC(=O)c1onc(CSc2cccc(C)c2)c1C(=O)O	0	-2	2	2	i	1	8	-11
COc1cccc(C(=O)CSc2nnc(CNS(C)(=O)=O)n2-c2ccc(C)cc2)c1	1	4	.	.	.	-8	-11	-14
COC(=O)c1ccc(CNC(=O)COC(=O)CCC2CCCC2)cc1	0	5	8	-15	i	-5	23	.
O=C(CSCc1ccc(Cl)cc1)N/N=C/c1ccccc1	1	1	0	7	i	-13	-7	-11
CC(=O)c1ccc(NC(=O)C(C)OC(=O)C2CC(=O)N(c3ccc4c(c3)OCCO4)C2)cc1 (centres undefined)	-3	-2	.	-12	i	-5	4	4
C=CCn1c2ccccc2c2nnc(SCc3[nH]c(=O)[nH]c3C(=O)CCCCC(=O)OCC)nc21	-6	2	.	2	i	-3	-2	-10
CC(C)(C)c1ccc(OCCCC(=O)Nc2cccc(S(=O)(=O)N3CCOCC3)c2)cc1	1	-23	-9	.	.	.	.	-13
CCN(CC)CCn1c(=N)n(CC(O)c2ccc(OC)c(OC)c2)c2ccccc21 (centres undefined)	.	.	1	23	.	2	11	.
O=C(NNC(=S)NC(=O)c1cn(-c2ccccc2)nc1-c1ccccc1)c1ccncc1	1	-8	16	27	i	9	0	.
N#CCCN(C(=O)COC(=O)CCC(=O)c1cccs1)c1ccccc1	-3	5	.	-8	.	.	.	3
CCOC(=O)c1ccc(S(=O)(=O)N2CCC(C(=O)Nc3nnc(C)o3)CC2)cc1	-4	0	-32	.	.	.	.	-20
CCC(=O)N1CCCc2cc(S(=O)(=O)CCC(=O)Nc3ccccc3C)ccc21	-2	-5	1	4	i	-4	3	-10

High-throughput results from PubChem BioAssay.
